Screens: PubChem, National Center for Advancing Translational Sciences (NCATS)
miR-21 reporter: qHTS Assay for Modulators of miRNAs and/orActivators of miR-21; AID 2288, 2010; Potency, µM (top dose mostly 38.3 µM), inactives show at the highest dose reporter change, positive = more light; 340,000 tested, under 10 active; HeLa miR-21 FLuc reporter, luciferase, 48 h; active = well fitted rising curve with a large enough effect; inconclusive = small, poorly fitted or top-dose-only effect; inactive = no such curve, though single readings can be large or run the other way;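 further: % of control where 0% means no effect; miR-21 action dims this reporter so a rising signal means less miR-21 action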
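Compounds were titrated across several concentrations (up to approximately 40 uM) and incubated 48 hours with HeLa miR-21-FLuc reporter cells (miR-21 target sequence downstream of FLuc, endogenous miR-21). Readout was firefly luciferase luminescence after lytic detection reagent.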
Rango dissoc inh: qHTS Assay for Inhibitors of RanGTP induced Rango (Ran-regulated importin-beta cargo) - Importin beta complex dissociation; Biochemical FRET Rango-importin beta, RanGTP-induced dissociation; Potency, µM (doses to about 46.1 µM), inactives show at the top dose activity change, negative = inhibition; 340,000 tested, 0.071% active; AID 540253, 2011; active means falling FRET ratio curve, often poorly fitted, with flat reads before Ran was added; inconclusive means other falling curves, or compound fluorescence or quenching; inactive means flat or rising ratio curve;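 further: potency means the concentration at half of the fitted maximal effect; % of control where 0% means no effect; nearly all actives have a fitted effect of over 45% in size; -100% = wells without RanGTP and RCC1; the record marks most hits as doubtful in a second field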
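Quantitative HTS using a FRET biosensor: 0.1 uM Rango, 0.25 uM importin beta, 0.6 uM Ran, 2 mM GTP, 0.2 uM RCC1 final, PBS with DTT, Tween-20 and BSA. Post-read taken 45 min after Ran addition.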
Rango complex inh: qHTS Assay for Inhibitors of Rango (Ran-regulated importin-beta cargo) - Importin beta complex formation. Rango CFP/YFP FRET sensor + importin beta, 45 min. Potency, µM (titrated, usually from 92.2 µM), inactives show at the highest dose inhibition of complex formation. 340,000 tested, 0.031% active; active = rising FRET ratio curve, often small or poorly fitted; inconclusive = mostly compound fluorescence or quenching in the first reads; inactive = flat curves in all reads;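 further: potency means the concentration at half of the fitted maximal effect; 0% = DMSO wells and 100% = buffer wells lacking importin beta; nearly all actives have a fitted effect of over 15% in size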
Target sequence (Q14974 whole entry, looked up): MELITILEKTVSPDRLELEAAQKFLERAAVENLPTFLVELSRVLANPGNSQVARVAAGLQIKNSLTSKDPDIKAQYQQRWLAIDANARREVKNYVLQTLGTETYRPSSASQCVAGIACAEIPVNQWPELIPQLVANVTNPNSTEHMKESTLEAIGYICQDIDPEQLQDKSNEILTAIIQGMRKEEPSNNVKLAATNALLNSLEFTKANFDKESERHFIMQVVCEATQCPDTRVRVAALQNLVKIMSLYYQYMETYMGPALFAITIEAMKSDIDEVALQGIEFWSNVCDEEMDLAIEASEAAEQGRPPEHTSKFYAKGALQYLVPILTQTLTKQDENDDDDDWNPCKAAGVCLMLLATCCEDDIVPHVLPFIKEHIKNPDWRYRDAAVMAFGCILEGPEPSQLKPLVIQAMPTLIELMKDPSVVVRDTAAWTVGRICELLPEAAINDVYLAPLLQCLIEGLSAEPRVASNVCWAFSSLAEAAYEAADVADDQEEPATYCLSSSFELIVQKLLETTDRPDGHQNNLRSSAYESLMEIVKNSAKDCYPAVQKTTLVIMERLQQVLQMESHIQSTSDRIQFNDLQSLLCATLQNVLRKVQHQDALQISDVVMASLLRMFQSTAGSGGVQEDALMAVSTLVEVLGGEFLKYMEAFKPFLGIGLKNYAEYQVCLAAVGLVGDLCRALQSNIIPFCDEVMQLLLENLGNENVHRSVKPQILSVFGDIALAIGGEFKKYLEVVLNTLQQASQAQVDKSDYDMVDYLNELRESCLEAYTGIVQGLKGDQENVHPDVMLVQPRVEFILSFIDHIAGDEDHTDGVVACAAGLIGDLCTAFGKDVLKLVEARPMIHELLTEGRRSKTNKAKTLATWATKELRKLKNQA
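FRET biosensor Rango (snurportin 1 IBB between N-terminal EYFP and C-terminal Cerulean), 50 nM in PBS/1 mM DTT/0.02% Tween-20/0.1% BSA, preincubated 5 min RT with compound; 0.125 microM importin beta added, 45 min RT, CFP/YFP FRET ratio read.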
GLA inh pH 4.5: qHTS Assay for Inhibitors of Human alpha-Galactosidase at pH 4.5; purified enzyme, 4-MU-alpha-Gal fluorescence, pH 4.5; activity change, negative = inhibition, % at 105 µM; 230,000 tested, under 10 active; inconclusive = small, poorly fitted or top-dose-only inhibition, or a rising curve; inactive = flat fitted curve, though single readings scatter; no compound was filed as active;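 further: 0% = full activity with enzyme and -100% = basal without enzyme; dose as in the result columns while the protocol names 77 µM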
An asterisk follows results filed as active; u = inconclusive; x = no result given; & = joins results of further samples; [ ] = another dose, or the depositor's remark. These rows are one share of the data; count on the stated rates, not on these rows.

miR-21 reporter	compound	Rango dissoc inh	Rango complex inh	GLA inh pH 4.5
-3.0%	CN1CC=C2C(C#N)=C(N)C(C#N)(C#N)C(Cc3ccccc3)C2C1 (stereo not given)	u	u	12.3
x	N#CC1(NC(=O)CSc2n[nH]c(-c3ccccc3)n2)CCCCC1	1.4%	8.5%	x
-10.5%	O=S(=O)(NCc1ccc(Cl)cc1)c1cccc2cccnc12	-0.9%	1.5%	0.7
-0.5%	O=C(c1ccc(F)cc1)N1CCCC(C(=O)N2CCN(c3ccccc3)CC2)C1 (stereo not given)	-8.1%	3.1%	0.4
-0.2%	O=S(=O)(Nc1ccc2c3c(cccc13)CC2)c1ccc(F)cc1	0.2%	-1.1%	-6.6
u	O=C1C(=O)c2c(C(=O)c3ccccc3)coc2-c2ccccc21	8.8%	-0.3%	-14.1
-38.9%	OC1CCCN(Cc2ccc3c(c2)Cc2ccccc2-3)C1 (stereo not given)	6.1%	2.2%	0.5
0.3%	CCCCCCCCC(=O)NNC(=O)c1c(O)c2ccccc2n(CCC)c1=O	5.0%	-1.2%	-3.6[21.1 µM]
-10.3%	CN(C)CCCNC(=S)N1CCn2c(nc3ccccc32)C1	15.9%	5.3%	-0.5
-21.6%	CCOc1ccc(S(=O)(=O)N2CCCCC2)c2ccccc12	-11.6%	-0.5%	-11.4

New compounds follow:
miR-21 reporter	compound	Rango dissoc inh	Rango complex inh	GLA inh pH 4.5
3.1%	CC(CCN1CCN=C1Nc1ccccc1)c1ccccc1 (stereo not given)	5.4%	1.8%	x
9.7%	CC1CN(S(=O)(=O)c2cccc(C(F)(F)F)c2)CN1C(=O)N1CCOCC1 (stereo not given)	3.0%	-1.0%	x
1.0%	Cc1ccc(-c2csc3nc[nH]c(=S)c23)cc1C	1.1%	0.7%	-1.1
-8.7%	COCCC(=O)N1CCC(Oc2ccc(C(=O)NCCc3ccccn3)cc2)CC1	7.6%	0.5%	x
-2.8%	NC(=O)COC(=O)c1sc2ccccc2c1Cl	-1.3%	-2.3%	2.7
-19.7%	Cc1ccc(NC(=S)NNC(=S)Nc2cccc(C(F)(F)F)c2)cc1	-10.3%	-2.0%	-6.8
3.4%&-0.2%	CCOC(=O)C1CCCN(C(=O)c2ccc3c(c2)N(Cc2ccccc2)C(=O)c2ccccc2S3=O)C1 (stereo not given)	11.9%	5.5%	1.1
x	CCOC(=O)c1ccccc1NC(=O)C1CC(=O)N(C2CCCC2)C1 (stereo not given)	-11.4%	0.4%	x
-1.2%	Cc1cc(/C=C2/SC(=O)N(CC(=O)N3CCCC3)C2=O)ccc1N1CCOCC1	-7.0%	u	-9.4
-50.3%	O=C(CCc1ccccc1)n1nc(-c2ccco2)nc1SCc1ccccc1	0.5%	-3.3%	0.2

(listing goes on)
miR-21 reporter	compound	Rango dissoc inh	Rango complex inh	GLA inh pH 4.5
-14.2%	COc1cccc(-c2csc(N3CCN(C(=S)Nc4ccccc4Cl)CC3)n2)c1	14.0%	-2.2%	2.1
4.6%	CCN(CC(=O)Nc1c(F)cccc1F)C(=O)c1ccc(Cl)c(S(=O)(=O)N2CCCCC2)c1	2.3%	-0.9%	x
16.2%	COc1ccccc1CNC(=O)[C@H](C)N1C(=O)N2CCc3c([nH]c4ccccc34)[C@@]2(C)C1=O	7.1%	1.4%	x
u	COC(=O)CS(=O)(=O)c1nnc([C@H](Cc2ccccc2)NC(=O)OC(C)(C)C)o1	1.3%	-2.8%	4.8
-39.7%	CCOC(=O)c1ccc(NC(=O)CSc2nccn2C)cc1	0.7%	1.6%	0.5
-12.7%	O=C(COC(=O)c1cc[n+]([O-])cc1)Nc1ccc(Cl)cc1[N+](=O)[O-]	-2.1%	-2.9%	5.2
6.1%	CCOc1ccc(NC(=O)CC2C(=O)N(C)C(=S)N2Cc2ccc3c(c2)OCO3)cc1 (stereo not given)	0.1%	-0.8%	-11.4
-11.3%	COc1ccc(C(CC(=O)NCc2ccccc2)C(C)C)cc1 (stereo not given)	-1.8%	-1.0%	2.7
-0.9%	CCOC(=O)N1CCC(NC(=O)c2cc(COc3ccc(F)cc3Cl)on2)CC1	-5.7%	-0.5%	x
-2.6%	OC(CN1CCOCC1)CN(c1ccccc1)c1ccccc1 (stereo not given)	1.7%	3.0%	6.4

Other results:
miR-21 reporter	compound	Rango dissoc inh	Rango complex inh	GLA inh pH 4.5
-0.5%	Cc1ccccc1N1CCN(C2CCCN(C(=O)c3cc[n+]([O-])cc3)C2)CC1 (stereo not given)	-8.2%	-0.1%	x
x	CCCCn1cnc2c(SCc3cccc(F)c3)nc(N)nc21	26.6%	u	x
-11.5%	CC(C)(C)c1ccc(-c2cc(-c3ccccc3O)[nH]n2)cc1	-11.9%	-0.1%	x
-1.6%	O=C(COC(=O)Cc1ccsc1)Nc1ccccc1	20.6%	0.4%	-14.8
-2.3%	CCOc1ccc(C2C(C#N)=C(N)SC(N)=C2C#N)cc1OCC	u	u	-1.1
-4.1%	COc1ccccc1CCNC(=O)Nc1cccc([N+](=O)[O-])c1	1.1%	0.5%	2.0
-1.7%	C/C(=C\C#N)n1nc(C)cc1N	-11.6%	6.1%	0.9
-7.4%	COC(=O)Cc1ccc(NC(=S)NCc2ccccc2OC)cc1	14.0%	0.6%	3.7
-4.4%	COc1ccccc1C(=O)NCCC(=O)NCCc1ccccc1	1.1%	-3.2%	x
4.3%	CC(=O)c1c(C)[nH]c(C(=O)OCC(=O)NCC(C)C)c1C	u	u	1.7

Carrying on:
miR-21 reporter	compound	Rango dissoc inh	Rango complex inh	GLA inh pH 4.5
22.7%	O=C(C1CCN(S(=O)(=O)c2cccnc2)CC1)N1CCN(c2ccc(Cl)cc2)CC1	12.7%	6.5%	-7.6
2.0%	COc1ccccc1NC(=O)c1cc(OC)c(OC)cc1[N+](=O)[O-]	12.1%	0.1%	-7.8[21.1 µM]
0.5%	CC(=O)n1cc([C@H]2C=C(C(=O)Nc3ccccc3)O[C@@H](OCCCCO)C2)c2ccccc21	-13.8%	-0.9%	-3.1
x	CC(=O)C1(O)CCC2C3CCC4CC(=O)CCC4(C)C3C(=O)CC21C (stereo not given)	1.7%	0.2%	x
-6.7%	O=C(CN1C(=O)NC2(CCOc3ccccc32)C1=O)Nc1ccc2c(c1)OCCO2 (stereo not given)	0.9%	-2.3%	-13.4
-0.7%	COCCN(C)Cc1nc(C(c2ccccc2)c2ccccc2)no1	14.9%	-0.3%	x
0.1%	Cc1nn(-c2ccccc2)c(C)c1NC(=O)c1ccc(S(=O)(=O)N2CCCC2)cc1	0.0%	2.1%	-4.0
-5.6%	Cc1cc(C=C2C(=O)c3ccccc3C2=O)c(C)n1-c1ccc(C(=O)O)cc1	u	u	-7.7
2.7%	COc1cc(/C=N\NC(=O)Cn2nnc3ccccc32)cc(OC)c1OC	0.5%	1.3%	9.0
0.5%	O=C1CC(NCc2ccccc2)C(=O)N1c1ccc(F)cc1 (stereo not given)	17.7%	-2.0%	6.7

(listing goes on)
miR-21 reporter	compound	Rango dissoc inh	Rango complex inh	GLA inh pH 4.5
0.2%	OC1(c2ccc(F)cc2)CCN(Cc2cccnc2)CC1	-15.2%	1.7%	x
-10.8%	Cc1ccc(S(=O)(=O)NC(C(=O)Oc2ccc3c(C)c(Cl)c(=O)oc3c2)c2ccccc2)cc1 (stereo not given)	u	u	u
0.9%	Cc1noc(C)c1S(=O)(=O)Nc1ccc(C(=O)N2CCCCC2)cc1	5.5%	4.1%	5.9
-0.3%	COc1ccc(C(=O)NCc2ccon2)cc1OC1CCN(C(C)C)CC1	0.8%	-1.6%	x
-58.7%	N#C/C(=C\c1c[nH]c2ccccc12)C(=O)NC1CC1	21.3%	4.3%	x
-6.3%	CCc1ccc(OCc2nnc(SCC(=O)NCc3ccco3)o2)cc1	-2.3%	1.0%	-2.8
-2.7%	Cc1ccc(-c2c(CC(=O)O)c(C)nc3sc4c(c23)CCCC4)cc1	0.1%	0.3%	x
-4.6%	CCN1CCN(C(=O)c2nn(-c3ccc(OC)cc3)c(=O)c3c2c2ccccc2n3C)CC1	2.2%	1.3%	1.4
-0.7%	Cc1[nH]c2c([N+](=O)[O-])cccc2c1C	-2.9%	2.6%	4.8
1.2%	CC(C)NC(=O)C(Sc1ccccc1)c1ccccc1 (stereo not given)	-5.2%	0.5%	-5.3

Additional results
miR-21 reporter	compound	Rango dissoc inh	Rango complex inh	GLA inh pH 4.5
-5.8%	COCCNC(=O)CN1CCC(NC(=O)Nc2ccc(C(F)(F)F)cc2)CC1	-10.0%	u	3.2
5.9%	CCOc1cccc(C(=O)Nc2nc(-c3ccc(S(=O)(=O)N4CCOCC4)cc3)cs2)c1	-5.1%	65.1µM*	-3.1
-19.5%	COc1ccc(-c2noc(CNC(=O)CCCN3C(=O)[C@H]4CC=CC[C@H]4C3=O)n2)cc1	-16.9%	u	x
-4.7%	COc1ccc(CNC(=O)C(C)NC(=O)c2cc3ccccc3o2)cc1 (stereo not given)	16.5%	-2.5%	-1.9
-1.7%	Cc1cc(C)c(C)c(N=Nc2nc3ccccc3n2C)c1C	10.3%	0.9%	-1.2
-6.5%	O=C1c2ccccc2C(=O)N1C/C=C/c1ccccc1	4.2%	0.5%	-2.3
-0.2%	O=C(NC1CC1)C1=C[C@H](C2CC2)C[C@H](OCCCCO)O1	u	6.8%	0.8
u	CC(=O)c1cc(NC(=O)c2cccc(C(F)(F)F)c2)c(=O)oc1C	3.5%	-1.3%	10.1
-5.2%	Cc1noc(NS(=O)(=O)c2ccc(NC(=O)c3cnc4scc(C)n4c3=O)cc2)c1C	16.6%	2.7%	-6.6
4.7%	Cc1ccc(S(=O)(=O)N(C)C)cc1NC(=O)COC(=O)CCC(=O)c1cccs1	1.5%	0.2%	5.7
-6.9%	Cc1c(-c2ccccc2)[n+](=O)c(-c2ccco2)c(C)n1[O-]	-8.3%	-0.3%	-3.9
-4.4%	O=C(NCC(=O)N(Cc1ccco1)C(C(=O)NC1CCCC1)c1cccnc1)c1cccs1 (stereo not given)	-9.8%	1.9%	3.8

Shown tab-delimited: part of the list above.
structure	miR-21 reporter	Rango dissoc inh	Rango complex inh	GLA inh pH 4.5
Cc1nn(-c2ccccc2)c(C)c1NC(=O)c1ccc(S(=O)(=O)N2CCCC2)cc1	0.1%	0.0%	2.1%	-4.0
Cc1cc(C=C2C(=O)c3ccccc3C2=O)c(C)n1-c1ccc(C(=O)O)cc1	-5.6%	u	u	-7.7

Structures shown so far containing an aryl methoxy group:
miR-21 reporter	compound	Rango dissoc inh	Rango complex inh	GLA inh pH 4.5
-14.2%	COc1cccc(-c2csc(N3CCN(C(=S)Nc4ccccc4Cl)CC3)n2)c1	14.0%	-2.2%	2.1
16.2%	COc1ccccc1CNC(=O)[C@H](C)N1C(=O)N2CCc3c([nH]c4ccccc34)[C@@]2(C)C1=O	7.1%	1.4%	x
-11.3%	COc1ccc(C(CC(=O)NCc2ccccc2)C(C)C)cc1 (stereo not given)	-1.8%	-1.0%	2.7
-4.1%	COc1ccccc1CCNC(=O)Nc1cccc([N+](=O)[O-])c1	1.1%	0.5%	2.0
-7.4%	COC(=O)Cc1ccc(NC(=S)NCc2ccccc2OC)cc1	14.0%	0.6%	3.7
-4.4%	COc1ccccc1C(=O)NCCC(=O)NCCc1ccccc1	1.1%	-3.2%	x
2.0%	COc1ccccc1NC(=O)c1cc(OC)c(OC)cc1[N+](=O)[O-]	12.1%	0.1%	-7.8[21.1 µM]
2.7%	COc1cc(/C=N\NC(=O)Cn2nnc3ccccc32)cc(OC)c1OC	0.5%	1.3%	9.0
-0.3%	COc1ccc(C(=O)NCc2ccon2)cc1OC1CCN(C(C)C)CC1	0.8%	-1.6%	x
-4.6%	CCN1CCN(C(=O)c2nn(-c3ccc(OC)cc3)c(=O)c3c2c2ccccc2n3C)CC1	2.2%	1.3%	1.4
-19.5%	COc1ccc(-c2noc(CNC(=O)CCCN3C(=O)[C@H]4CC=CC[C@H]4C3=O)n2)cc1	-16.9%	u	x
-4.7%	COc1ccc(CNC(=O)C(C)NC(=O)c2cc3ccccc3o2)cc1 (stereo not given)	16.5%	-2.5%	-1.9
